Ecoli growth = blocks Escherichia coli growth | OD600, 23 h; active compounds read low | OD600 absorbance (no concentration beside the values) | actives 0.21% (n = 330,000) | AID 1053175;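 active = OD600 absorbance below the run mean of sample wells minus 3.6 SD, in any replicate, cut at about 0.56 in these data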;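 also: stock transfer was 300 nL into about 60 µL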
LANA-H2A inh = blocks KSHV LANA binding to histone H2A/H2B | cell-free LANA-H2A/H2B peptide, fluorescence polarization | actives 0.6% (n = 320,000) | inhibition, % (concentration not given with the values); in the data active = inhibition mostly above about 10%, no sharp cut-off; inactive = mostly below about 6.7%;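 also: stock transfer was 7.5 nL into about 10 µL; 0% = median of vehicle wells and 100% = median of positive control wells; one replicate is shown; the record names a cut of 25% in any replicate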
Beta2AR agonist = human beta-2 adrenergic receptor agonism by FAP | P07550 | Am2.2-beta2AR cells, FAP receptor internalization, flow cytometry; reference of the scale not given here | response, % (concentration not given with the values) | actives 0.43% (n = 340,000);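 active = response above a set limit, near 3 SD of response in nonfluorescent compounds, cut at about 42% in these data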;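 also: stock transfer was 100 nL into about 11 µL; a reference agonist was the positive control; negative values mostly stem from fluorescent compounds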
Target sequence (P07550 whole entry, looked up): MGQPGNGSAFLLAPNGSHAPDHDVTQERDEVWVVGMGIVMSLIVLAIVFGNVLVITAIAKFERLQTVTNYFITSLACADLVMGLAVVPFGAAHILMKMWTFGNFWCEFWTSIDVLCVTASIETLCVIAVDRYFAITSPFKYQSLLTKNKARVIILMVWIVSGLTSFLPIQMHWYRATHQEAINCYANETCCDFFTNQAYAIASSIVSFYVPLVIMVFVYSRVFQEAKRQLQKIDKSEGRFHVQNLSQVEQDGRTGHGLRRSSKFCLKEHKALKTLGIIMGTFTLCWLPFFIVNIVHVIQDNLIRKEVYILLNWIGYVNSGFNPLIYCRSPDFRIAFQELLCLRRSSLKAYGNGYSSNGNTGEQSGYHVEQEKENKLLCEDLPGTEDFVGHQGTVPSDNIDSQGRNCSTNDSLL
HNF4A DNA FP = change in binding of human HNF4 alpha to DNA. actives 0.3% (n = 360,000). HNF4a-FITC DNA binding, fluorescence polarization, 1 h. P41235. activity change, % at 10 µM; in the data active = activity change above about 30%, passing the limit was not always enough;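 also: controls were the assay level and a saturating level of protein; the project sought stronger binding though the title names inhibitors; some compounds called inactive have numbers as strong as hits; positive values seem to mean higher polarization but the record does not say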
Target sequence (P41235 whole entry, looked up): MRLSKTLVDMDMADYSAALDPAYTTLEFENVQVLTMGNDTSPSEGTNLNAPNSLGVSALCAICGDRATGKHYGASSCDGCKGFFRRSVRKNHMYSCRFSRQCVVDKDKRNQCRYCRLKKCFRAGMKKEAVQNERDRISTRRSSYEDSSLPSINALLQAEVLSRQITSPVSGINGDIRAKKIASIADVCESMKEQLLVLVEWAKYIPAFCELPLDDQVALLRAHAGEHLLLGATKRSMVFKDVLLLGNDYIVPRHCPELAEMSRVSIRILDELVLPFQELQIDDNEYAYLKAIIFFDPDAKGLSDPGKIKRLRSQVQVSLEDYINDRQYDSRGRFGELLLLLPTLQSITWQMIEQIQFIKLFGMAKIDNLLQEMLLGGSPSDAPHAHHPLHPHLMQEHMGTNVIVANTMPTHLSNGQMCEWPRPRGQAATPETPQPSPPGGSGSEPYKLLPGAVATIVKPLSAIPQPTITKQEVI
UCH37 inh = blocks the human deubiquitinase UCH37. actives 0.33% (n = 330,000). inhibition, % (no concentration beside the values). Q9Y5K5. purified proteasome/UCH37, Ub-AMC cleavage fluorescence;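 active = mean of two replicates above 20%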;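 also: 0% = compound-free wells with enzyme and 100% = wells lacking proteasome; stock transfer was 100 nL into about 20 µL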
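system = Proteasome-associated human UCH37 deubiquitinase | amount = 0.15 nM proteasome as dispensed | medium = pH 7.4 Tris-HCl (50 mM) with ovalbumin, ATP-MgCl2, DTT | incubation = 30 min preincubation with enzyme, 25 min cleavage at room temperature | detection = AMC fluorescence 355/460 nm | read-out basis = percent inhibition | controls = no-proteasome and no-compound wells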
A1 inh = inhibitors of the anti-apoptotic protein A1, read as caspase activation; caspase activation, % (concentration not given with the values); actives 0.066% (n = 330,000); AID 2462; MEF A1-2A-BIM cells, Caspase-Glo 3/7 luminescence, 3 h; percent of clofoctol response, vehicle zero;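 active = over half of replicate activation scores above 10%, or exactly half above 10 with the replicate mean above 10; inconclusive = replicate mean below 10 yet half the replicates above 10; inactive = over half of replicates below 10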;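 also: wells of about 30 µL received 50 nL stock; many hits fall short of the cut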
Vif TR-FRET = inhibitors of Vif binding to APOBEC3G peptide, primary screen, biochemical, TR-FRET, GST-Vif 1-94, biotin-A3G peptide, dose response retest (AID 1117319); TR-FRET GST-Vif / biotin-A3G peptide binding; higher % means a stronger effect; test concentration not given here; strong numbers were not always called active; inhibition, %; hits with a dose series show IC50 in µM; actives 0.57% (n = 260,000);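 active = above the screen mean plus three standard deviations and confirmed in dose response; inconclusive = results disagree or hit not tested in dose response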;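 also: Vif residues 1-94 fused to GST binding biotinylated APOBEC3G peptide 110-148; 0% = full assay without inhibitor and 100% = GST in place of GST-Vif; retest series ran down from 100 µM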
* marks the source's active call; other numbers are inactive results; u = inconclusive; x = no result given; & = joins results of further samples.

SMILES | Ecoli growth | LANA-H2A inh | Beta2AR agonist | HNF4A DNA FP | UCH37 inh | A1 inh | Vif TR-FRET
C=CCOc1ccc2c(c1)CCC1C2CCC2(C)C(O)C(O)CC12 (stereo not drawn) | 0.675 | x | 12.8 | 1.2 | 3.1 | x | -6.9%
Cc1cc(C)c(S(=O)(=O)Nc2cccnc2)c(C)c1 | 0.715 | 4.2 | 2.7 | 0.9 | 0.4 | 2.3 | 8.7%
O=C1CSC(c2cccc(F)c2)N1c1ccccc1F (stereo not drawn) | 0.702 | 2.8 | 1.3 | -2.8 | 0.9 | -0.4 | 0.0%
CCOc1ccc2nc(NC(=O)C(NS(=O)(=O)c3cccc4nsnc34)C(C)C)sc2c1 (stereo not drawn) | 0.729 | 0.1 | 1.4 | 0.7 | 6.4 | 0.0 | 4.5%
Cc1nn(CC#N)c(=O)n1-c1ccccc1 | 0.7 | -2.7 | -14.5 | 7.3 | -1.8 | -0.3 | 2.4%
CCCS(=O)(=O)c1nc(S(=O)(=O)c2ccc(C)cc2)c(NCc2ccco2)s1 | 0.686 | 7.8 | 36.6 | -1.5 | 2.5 | 0.0 | x
COc1cccc(-n2cnc3scc(-c4cccs4)c3c2=O)c1 | 0.737 | -0.8 | -3.4 | 0.5 | -2.2 | 0.0 | 1.9%
COc1ccc(CCN2C(=O)c3[nH]nc(-c4ccccc4O)c3C2c2ccc(C)cc2)cc1OC (stereo not drawn) | 0.676 | 4.0 | 4.6 | -4.7 | 1.9 | 0.3 | 4.7%&3.0%
CCCC[C@@H]1CN=C(N)N1CC(C)(C)C | x | -2.6 | -2.0 | -0.9 | 3.4 | 0.4 | x
Cc1nn(C2CCS(=O)(=O)C2)c2nc(C3CC3)cc(C(=O)Nc3cccc(C#N)c3)c12 (stereo not drawn) | 0.65 | x | 14.9 | -0.2 | -1.6 | x | -4.1%
CCCCN(C)C1=CC2=CC(=C(C#N)C#N)CCC2CC1 (stereo not drawn) | 0.734 | -0.2 | -239.0 | -98.1 | 7.5 | 0.1 | 9.7%
Cc1ccccc1OCCOc1ccccc1C=C(C#N)C#N | x | 2.1 | x | x | x | -1.2 | -0.8%
CN(C)S(=O)(=O)c1ccc(Cl)c(NC(=O)COC(=O)c2ccc(O)cc2)c1 | 0.68 | 1.9 | 0.1 | -1.1 | 1.6 | 0.7 | -0.5%
C#CCOc1nc(Nc2cccc([N+](=O)[O-])c2)nc(OCC#C)n1 | 0.646 | 5.1 | -7.9 | -4.5 | 5.4 | -0.4 | x
CCOc1cc(/C=C(\C#N)C(=O)Nc2cccc(C(=O)O)c2)ccc1OCc1ccccc1Cl | x | -3.4 | 8.3 | -0.3 | x | 0.3 | x
CCOc1ccc(/C=N/NC(=O)CNC(=O)c2ccc(S(=O)(=O)N3CCOCC3)cc2)cc1 | x | -1.6 | 1.4 | -0.9 | x | 0.2 | 2.6%
Cc1cc(N2C(=O)C3CC=CC(C)C3C2=O)no1 (stereo not drawn) | 0.712 | 3.4 | -0.3 | -2.4 | 1.4 | 0.7 | -2.2%
CCN1CCC(O)(C(C(=O)O)c2ccccc2)CC1 (stereo not drawn) | 0.68 | x | 4.7 | 1.3 | 0.8 | x | 5.2%
Cc1c(C(=O)Nc2ccc3c(c2)OCCO3)sc2ncnc(N3CCCCC3C)c12 (stereo not drawn) | 0.712 | -0.7 | 15.5 | 1.5 | 3.6 | -0.6 | x
Cc1ccc(CNC(=O)c2ccc(-n3cccc3)cc2)cc1 | 0.698 | x | -3.1 | -31.9 | 4.1 | x | x
Fc1ccc2[nH]c3c(NCCN4CCOCC4)ncnc3c2c1 | 0.631 | -0.8 | -8.7 | -3.5 | -16.6 | -0.2 | -0.8%
Cc1ccc(S(=O)(=O)Nn2cnnc2)cc1 | 0.693 | -4.9 | -1.9 | -1.9 | 2.9 | -0.5 | 6.0%
CC1CCCCC12NC(=O)N(CC(=O)N(C)Cc1nc3ccccc3c(=O)[nH]1)C2=O (stereo not drawn) | 0.694 | -6.7 | -3.3 | -0.1 | 0.0 | 0.2 | -7.7%
Cc1nn(C)c(C)c1CNC(=O)c1cc2n(n1)C(C(F)(F)F)CC(c1cccs1)N2 (stereo not drawn) | 0.686 | -3.2 | -7.1 | -1.2 | 2.6 | -0.3 | 3.2%
Cc1ccc(CNC(=O)CCS(=O)(=O)c2ccc(C)cc2)cc1 | 0.592 | -2.7 | 1.5 | -0.8 | 0.0 | -0.3 | -9.9%
COc1ccc(C(=O)NNC(=O)C(=O)N2CCCCC2)cc1OC | 0.699 | -4.0 | 1.3 | -0.6 | 4.3 | -0.4 | -2.7%
CCOc1ccc(S(=O)(=O)c2c(C(=O)c3ccc(C)cc3)cnc3cc4c(cc23)OCCO4)cc1 | 0.754 | 1.3 | -2.7 | -0.6 | -64.5 | 1.4 | -17.4%
O=C(COC(=O)COc1ccc(Cl)cc1)NCCNC(=O)COC(=O)COc1ccc(Cl)cc1 | 0.69 | x | 0.9 | -5.0 | 0.4 | 0.0 | 0.6%
COc1ccc(CNC(=O)C[C@H]2C[C@H](C(=O)N3CCOCC3)[C@@]3(C)c4[nH]c5ccc(Cl)cc5c4CCN3C2=O)cc1OC | 0.713 | x | -1.7 | -1.4 | 1.3 | x | x
CCCCCOC(=O)c1ccc(OC(=O)c2cncc(Br)c2)cc1 | 0.695 | 4.8 | -0.4 | 2.9 | 1.4 | -0.1 | 2.7%
N#C/C(=C\Nc1ccc(Cl)cn1)S(=O)(=O)c1ccccn1 | 0.684 | -4.1 | -3.0 | 1.1 | 9.0 | 0.8 | -4.5%
CC[C@]12c3[nH]c4ccccc4c3CCN1C(=O)C(CC(=O)NCCC1=CCCCC1)C[C@@H]2C(=O)N1CCN(C(=O)c2ccco2)CC1 (stereo partly drawn) | 0.705 | 2.7 | -1.2 | -0.9 | 6.0 | -0.6 | -6.4%
Cn1c(=O)c([N+](=O)[O-])c(NCCCn2ccnc2)c2ccccc21 | 0.649 | -9.2 | -3.3 | 5.3 | 3.3 | -0.9 | u
C/C(=N/NC(=O)CNc1ccc(C)cc1)c1ccc(Cl)cc1 | x | -4.4 | -4.2 | 1.4 | x | 0.0 | -4.1%
O=C(c1ccc(N2CCCC2)c([N+](=O)[O-])c1)N1CCN(c2ccccn2)CC1 | 0.634 | -2.3 | -15.9 | 4.6 | 7.1 | 0.3 | -4.6%
CN(Cc1ccco1)S(=O)(=O)c1nnc(NC(=O)c2ccc(F)cc2)s1 | 0.649 | 2.3 | 3.2 | -6.8 | -1.9 | 1.1 | x
O=[N+]([O-])c1cc2ccccc2nc1-c1ccccc1 | 0.737 | x | -17.5 | -0.5 | 3.6 | x | -4.8%
Cc1ccc(C(C)C)c(Oc2nnnn2-c2ccccc2)c1 | 0.692 | -6.0 | -6.5 | 1.7 | 0.9 | 0.1 | 32.4%
Cc1ccc(NC(=O)CSc2ncccn2)cc1F | 0.661 | 1.3 | -1.1 | -1.6 | 6.2 | 0.0 | 5.6%
O=C(NCc1ccncc1)C(=O)NCC(c1ccco1)N1CCN(c2ccccc2F)CC1 (stereo not drawn) | 0.675 | -1.4 | -6.3 | -0.3 | 4.6 | -0.4 | u
Cc1c(C)n(-c2ccccc2)c2ncnc(NCCN(C)C)c12 | 0.664 | -1.2 | -3.8 | 1.6 | 4.1 | u | -11.7%
Cc1oc(-c2cccc(Cl)c2)nc1CS(=O)(=O)CC(=O)NCc1ccco1 | 0.668 | -3.5 | -5.6 | 3.7 | 3.2 | 0.0 | x
COc1ccc(-n2c(=S)[nH]c3cc(C(=O)Nc4ccc(C)c(F)c4)ccc3c2=O)c(OC)c1 | 0.713 | 5.7 | 12.1 | 4.2 | 3.6 | 0.4 | x
Cc1csc2nnc(N)n12 | 0.663 | 2.3 | 0.3 | 3.3 | 1.2 | 0.4 | 0.9%
CCOc1cc(/C=C\[N+](=O)[O-])ccc1OCC(=O)Nc1ccccc1C | x | 5.0 | 112.4* | 0.5 | x | 30.9* | 3.5%

Next part (2 carried over from the part before).
SMILES | Ecoli growth | LANA-H2A inh | Beta2AR agonist | HNF4A DNA FP | UCH37 inh | A1 inh | Vif TR-FRET
Cc1csc2nnc(N)n12 | 0.663 | 2.3 | 0.3 | 3.3 | 1.2 | 0.4 | 0.9%
CCOc1cc(/C=C\[N+](=O)[O-])ccc1OCC(=O)Nc1ccccc1C | x | 5.0 | 112.4* | 0.5 | x | 30.9* | 3.5%
COc1cc2c(cc1OC)C(C(=O)Nc1cc(C)c(OC)c(C)c1)CC(=O)N2 (stereo not drawn) | 0.68 | 2.8 | -8.3 | -1.9 | -0.6 | 0.8 | x
CC(C(=O)O)N1C(=O)C2C3CC(C2C1=O)C1C(c2ccccc2)c2sc(=O)[nH]c2SC31 (stereo not drawn) | 0.605 | -2.3 | -1.4 | -3.5 | 0.6 | 0.7 | x
CN(C)CCC1Sc2ccccc2Oc2ccccc21 (stereo not drawn) | 0.664 | -0.4 | 3.5 | -0.8 | -0.1 | 1.7 | 2.2%
Cc1noc(C)c1CSc1nnc2ccccn12 | 0.671 | -12.8 | 7.9 | 1.4 | -85.2 | 0.1 | -0.4%
O=C(CSC1=NCCS1)NC(NC(=O)CSC1=NCCS1)c1ccccc1 | 0.713 | 15.6* | -6.6 | -1.8 | 5.8 | -0.7 | 3.6%
O=C(Nc1ccccc1)O/N=C/c1ccccc1Cl | x | 9.6 | 3.4 | -2.3 | x | 0.1 | 4.9%
CCCc1cc(=O)n2nc(N3CCC(C(=O)NCc4ccco4)CC3)sc2n1 | 0.648 | -1.5 | 5.0 | 1.1 | 4.6 | 0.9 | x
O=C(NCc1ccccc1)c1cc2ccccc2oc1=O | 0.675 | -1.6 | -7.3 | 3.8 | -12.8 | 0.7 | x
Cc1ccc(NC(=O)C(C)OC(=O)Cn2[nH]c(=O)c3ccccc3c2=O)cc1 (stereo not drawn) | 0.65 | 0.2 | 1.6 | 2.0 | 1.0 | -0.4 | -3.6%
O=C(COc1ccc2ccccc2c1)N1CCN(C(=O)c2cccs2)CC1 | 0.7 | -2.9 | -4.6 | -0.3 | -1.7 | 0.0 | -0.7%
CC(C)c1nc2oc3c(N4CCN(C)CC4)ncnc3c2c2c1CCC2 | 0.667 | x | 10.4 | 8.5 | -12.3 | x | x
O=C(COC(=O)c1nc(Cl)ccc1Cl)NNC(=O)c1ccccc1 | 0.64 | -0.7 | -5.1 | 2.6 | -1.5 | 1.1 | -2.9%
Cc1cc(OCC(=O)Nc2ccncc2)cc(C)c1Cl | 0.693 | -0.7 | -0.5 | -3.6 | 5.1 | -0.7 | x
COc1ccccc1CC(=O)Nc1ccc2c(C)cc(=O)oc2c1 | 0.654 | -3.1 | 1.3 | 3.1 | -189.4 | -0.2 | x
CCOC(=O)CSc1nnc(NCC(=O)OC(C)C)c(=O)[nH]1 | 0.717 | 0.9 | -5.4 | -0.9 | 11.2 | 0.6 | 1.1%&-0.7%
O=C1C2C3C=CC(C3)C2C(=O)N1CNc1ccccc1 (stereo not drawn) | 0.763 | 2.9 | 4.8 | -0.6 | -2.2 | 0.2 | 2.5%
COc1ccc(-n2nnnc2SCC(=O)Nc2cccc(C)n2)cc1OC | 0.694 | 8.4 | 1.5 | -1.8 | 2.1 | 0.5 | 13.0%
CCN(C(=O)CSc1nccc(=O)[nH]1)c1cccc2ccccc12 | 0.703 | 2.1 | 3.6 | 0.1 | 1.7 | 0.4 | x
